Assay outcomes deposited in PubChem BioAssay by several laboratories.
Env fusion inh – blocks HIV Env-driven cell-cell fusion. HeLa-JRFL Env/CEM21 cell fusion, luciferase. inhibition, % at 12.3 µM. 360,000 compounds, 1.1% hits;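 active = mean replicate inhibition score of at least 50 and every replicate individually at or above 50; inconclusive = only one of the two criteria met; inactive = mean below 50 and not all replicates reaching 50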;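 note: 0% = plate neutral controls and 100% = maraviroc near 300 nM; one replicate is shown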
MT1-MMP act inh – inhibitors of human MT1-MMP activation. P50281. 360,000 compounds, 0.061% hits. GFP/RFP ratio change, % at 20 µM. AID 651647. HT1080 RFP-PRO-GFP cells, GFP/RFP ratio fluorescence, overnight; percent of plate control window, DMSO zero;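 active = GFP/RFP ratio change of at least 30% with cell ATP level not reduced by more than half and red fluorescence within 50% of control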; note: strong numbers were not always called active
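Read-out: GFP/RFP fluorescence ratio; Test system: RFP-PRO-GFP reporter HT1080 cells; Compound dosing: single-point 20 µM compound, 1% DMSO; Times: overnight compound exposure at 37 °C.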
Rce1 inhib – blocks yeast Ras-converting enzyme; 290,000 compounds, 0.27% hits; calls only; Q03530; yeast membranes, quenched prenylated peptide cleavage fluorescence; AID 2563;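 active = fall in fluorescence gain of 50% or more versus controls, with final raw signal at or below 3038400; inconclusive = same 50% fall but final raw signal above 3038400; inactive = fall in fluorescence gain under 50%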;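 note: plate controls were neutral control wells for no effect and wells lacking membranes for full effect; tested at 10 µM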
Target sequence (Q03530 whole entry, looked up): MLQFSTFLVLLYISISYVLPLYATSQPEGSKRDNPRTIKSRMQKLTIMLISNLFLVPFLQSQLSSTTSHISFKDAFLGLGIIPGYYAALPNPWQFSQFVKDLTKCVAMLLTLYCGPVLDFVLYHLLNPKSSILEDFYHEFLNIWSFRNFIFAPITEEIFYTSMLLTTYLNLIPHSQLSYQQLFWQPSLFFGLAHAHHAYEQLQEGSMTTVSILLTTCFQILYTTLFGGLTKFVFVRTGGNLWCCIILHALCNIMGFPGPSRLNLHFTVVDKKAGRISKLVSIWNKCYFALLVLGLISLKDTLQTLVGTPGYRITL
UUG fidelity – alters start codon recognition fidelity in yeast. activity score, % at 18.7 µM. S. cerevisiae UUG-firefly luciferase reporter, luminescence/redox ratio. 350,000 compounds, 0.13% hits. AID 602363;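 active = replicate mean at a twofold rise or more, about +100% in these data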;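 note: firefly luciferase made from a UUG start codon reports start codon fidelity; reporter light over untreated wells divided by growth signal over untreated wells; some hits fall short of that in this replicate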
eIF4H FP inh – inhibitors of RNA binding by human eIF4H; Q15056; eIF4H fluorescence polarization binding assay; inhibition, % at 35 µM; 290,000 compounds, 0.94% hits; AID 2012;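 active = 50% or more with normal probe brightness, or confirmed in later tests; inconclusive = above 50% with abnormal brightness, or retests that disagree; inactive = below 50% or failed in later tests; about a fifth of its hits are not listed in these tables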;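 note: calls also rest on retests at 20 µM and on dose response follow-up; 0% = protein and probe with vehicle and 100% = probe without protein; strong numbers were not always called active; many hits fall short of the cut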
CSC inhib – cancer stem cell inhibition | inhibition, % at 7.5 µM | cancer stem cell-like cells viability, luminescence | AID 2717 | 300,000 compounds, 1.1% hits;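 active = mean at 75% or more and at least half the replicates too; inconclusive = mean and replicates disagree; tested in HMLE shEcad cells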;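 note: 0% = median of negative and 100% = median of positive control wells; the first replicate is given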
PABP FP inh – blocks human PABP binding to poly(A) RNA | P11940 | fluorescence polarization | inhibition, % at 35 µM | 290,000 compounds, 1% hits;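 active = 50% or more with normal probe brightness, or confirmed in later tests; inconclusive = above 50% with abnormal brightness, or retests that disagree; inactive = below 50% or failed in later tests; about a fifth of its hits are not listed in these tables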;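 note: calls also rest on retests at 20 µM and on dose response follow-up; controls were probe without protein and protein plus probe with vehicle; some compounds called inactive have numbers as strong as hits; many hits fall short of the cut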
Target sequence (P11940 whole entry, looked up): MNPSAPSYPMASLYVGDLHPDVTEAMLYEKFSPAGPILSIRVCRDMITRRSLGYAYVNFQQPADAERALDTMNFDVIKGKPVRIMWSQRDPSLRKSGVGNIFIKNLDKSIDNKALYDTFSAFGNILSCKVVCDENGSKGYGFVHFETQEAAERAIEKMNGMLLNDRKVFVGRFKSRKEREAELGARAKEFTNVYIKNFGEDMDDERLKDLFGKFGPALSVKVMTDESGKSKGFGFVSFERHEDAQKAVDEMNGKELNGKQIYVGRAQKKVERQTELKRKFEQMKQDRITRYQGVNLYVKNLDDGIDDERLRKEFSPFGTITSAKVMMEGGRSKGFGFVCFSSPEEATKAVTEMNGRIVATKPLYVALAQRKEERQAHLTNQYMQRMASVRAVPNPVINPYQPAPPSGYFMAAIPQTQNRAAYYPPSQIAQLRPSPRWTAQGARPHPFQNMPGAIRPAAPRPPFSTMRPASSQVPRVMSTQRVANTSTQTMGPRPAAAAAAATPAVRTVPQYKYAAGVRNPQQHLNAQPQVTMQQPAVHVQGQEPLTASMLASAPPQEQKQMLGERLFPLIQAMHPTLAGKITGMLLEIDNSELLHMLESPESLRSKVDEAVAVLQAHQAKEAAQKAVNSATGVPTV
eIF4H FP inh retest – recorded beside eIF4H FP inh, whose call it bears; inhibition, %; compound at 20 µM; confirmation average;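 mean of two retest wells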
PABP FP inh retest – further read-out of PABP FP inh, marked with its call; inhibition, %; compound at 20 µM; confirmation repeats;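 mean of two retest wells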
MT1-MMP act inh RFP – recorded beside MT1-MMP act inh, whose call it bears; RFP signal change, %; measured here: RFP expression control read;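 0 = vehicle wells; hits needed this value within 50% of zero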
* hit, by the source's call; i = inactive; ? = inconclusive; . = no result given. These rows are one share of the data (hit frequency here may not be typical).

SMILES | Env fusion inh | MT1-MMP act inh | MT1-MMP act inh RFP | Rce1 inhib | UUG fidelity | eIF4H FP inh | CSC inhib | PABP FP inh | others
CN(Cc1ccccc1)C(=O)COC(=O)C1CCN(S(=O)(=O)c2cccs2)CC1 | 14 | 2 | 5 | i | . | -1 | -14 | 4
C[C@@H](NC(=O)c1nc[nH]c1C(=O)N[C@@H](Cc1ccccc1)C(=O)OCc1ccccc1)c1ccccc1 | -3 | 3 | 1 | i | -1 | 9 | . | 7
CCOC(=O)c1cc2c(=O)n3cccc(C)c3nc2n(CCOC)c1=NC(C)=O | 10 | 0 | 0 | i | 6 | 14 | 2 | -4
CC(C)CCN(CCC(C)C)C(CO)(CO)CO | -5 | -3 | -3 | i | . | 12 | 3 | 13
COC(=O)c1ccc(NC(=O)C2CCCN2S(=O)(=O)c2ccc(OC)cc2)cc1 (centres undefined) | . | 0 | -3 | i | . | -7 | 4 | -4
Cc1ccc(CN2CCN(/N=C/c3ccc(C)s3)CC2)cc1 | 19 | 2 | 4 | i | -13 | -2 | 21 | -2
Cc1ccccc1-c1ccccc1N | 1 | 4 | 5 | i | -5 | 9 | 7 | 43
COc1cc(CNCCc2ccccc2)cc(Cl)c1OCc1ccccc1 | 24 | -2 | -4 | i | -9 | -4 | ? | -7
O=C(NCc1n[nH]c(=S)n1-c1cccc(Cl)c1)c1ccc(S(=O)(=O)N2CCCCC2)cc1 | -1 | 1 | -3 | i | -6 | 6 | 11 | 0
COc1cc(C2c3c(oc4ccccc4c3=O)C(=O)N2c2ccc(C)cn2)ccc1O (centres undefined) | 5 | -1 | -3 | i | -14 | 2 | -6 | -8
CCCCn1c(N)c(N(CCOC)C(=O)c2cc(-c3ccco3)nc3ccccc23)c(=O)[nH]c1=O | -3 | -2 | 2 | i | -25 | . | -13 | .
COc1ccc(-c2cnnc(N/N=C/c3ccc(O)cc3)n2)cc1 | -29 | 10 | -4 | i | . | -2 | -11 | -1
c1ccc(COc2cccc(CNCc3ccccn3)c2)cc1 | -14 | 4 | 6 | i | . | -3 | 10 | 0
CC(=O)Nc1nc(NCc2ccccc2Cl)n(-c2ccccc2)n1 | -6 | 0 | 1 | i | -2 | -12 | -3 | -32
Cc1c(C(=O)N2CCCCC2)nn(-c2ccc(Cl)cc2)c(=O)c1C#N | 9 | 2 | 3 | i | -22 | -11 | 2 | 3
CCN1CCN(CC(O)COc2ccc(C(C)=O)cc2)CC1 (centres undefined) | -11 | -1 | 6 | i | 1 | -12 | 3 | 35
Cc1[nH][nH]c(=O)c1N=Nc1ccccc1C#N | -25 | . | . | i | . | 7 | 4 | 3
O=C(Nc1ccccc1F)C1CCCN1S(=O)(=O)c1cccc2nsnc12 (centres undefined) | 0 | 3 | 2 | i | 9 | -4 | 4 | 5
Cc1ccc(C2NC(=O)c3ccccc3O2)cc1 (centres undefined) | 3 | 4 | 2 | i | -8 | -4 | -11 | -2
O=c1cc(NC2CCCCC2)c2ccccc2o1 | 20 | -9 | -6 | i | -10 | 11 | 2 | 4

3 compounds from above, ordered by molecular weight, smallest number first.
SMILES | Env fusion inh | MT1-MMP act inh | MT1-MMP act inh RFP | Rce1 inhib | UUG fidelity | eIF4H FP inh | CSC inhib | PABP FP inh | others
O=c1cc(NC2CCCCC2)c2ccccc2o1 | 20 | -9 | -6 | i | -10 | 11 | 2 | 4
O=C(Nc1ccccc1F)C1CCCN1S(=O)(=O)c1cccc2nsnc12 (centres undefined) | 0 | 3 | 2 | i | 9 | -4 | 4 | 5
CN(Cc1ccccc1)C(=O)COC(=O)C1CCN(S(=O)(=O)c2cccs2)CC1 | 14 | 2 | 5 | i | . | -1 | -14 | 4

Going on with the list:
SMILES | Env fusion inh | MT1-MMP act inh | MT1-MMP act inh RFP | Rce1 inhib | UUG fidelity | eIF4H FP inh | CSC inhib | PABP FP inh | others
O=C(c1ccncc1)N1CCN(S(=O)(=O)c2cc(C(F)(F)F)cc(C(F)(F)F)c2)CC1 | . | -3 | -7 | i | -5 | . | 39 | .
CC(C)NC(=O)c1cnc(Sc2ncc(C(F)(F)F)cc2Cl)n1C | . | 0 | 2 | i | 6 | -1 | . | -4
CCC(=O)Nc1ccc2nc(C)n(CC(=O)Nc3ccccc3)c(=O)c2c1 | -17 | 1 | -3 | i | -4 | -11 | -20 | 5
O=C(Cn1cccc1C(=O)c1ccccc1)NCc1ccccc1 | -66 | . | . | i | -3 | -8 | -1 | 5
CC(C)CC(NC(=O)CNC(=O)C1O[C@@H]2OC(C)(C)O[C@@H]2[C@H]2OC(C)(C)O[C@@H]12)C(=O)O (some centres undefined) | -5 | -1 | 5 | i | 1 | -1 | -11 | -3
COc1ccc(C(=O)COC(=O)c2ccc3c(c2)NC(=O)CS3)c(OC)c1 | 6 | 0 | 2 | i | -16 | . | 11 | .
O=C(CN1C(=O)c2ccccc2S1(=O)=O)NC1CCCC1 | . | 5 | 8 | i | -6 | -2 | -8 | 6
O=C(Cc1cccs1)NCc1ccccc1 | -11 | -2 | 2 | i | -19 | 1 | -18 | 1
CCOc1ccccc1NC(=O)NCc1ccc(F)cc1 | -6 | 2 | 4 | i | -5 | -9 | -9 | -10
Cc1sc2nc3c(C(=O)N4CCCC4)cc(C(=O)c4ccccc4O)cn3c(=O)c2c1C | -9 | -9 | -13 | i | 14 | 17 | -7 | 4
Cc1ccc(CN2CCNC(=O)C2CC(=O)N(C)CCc2cnn(C)c2)cc1 (centres undefined) | -43 | -3 | 3 | i | 0 | -12 | -13 | -8
Cc1nc2ncnn2c(C)c1Cc1cccc(F)c1 | 2 | 4 | 1 | i | -13 | 4 | -19 | 9
COC(=O)CNC(=O)COC(=O)c1cc(F)c(F)cc1Cl | -10 | 3 | 3 | i | -8 | -3 | -8 | 0
CCOC(=O)CSc1nnc(-c2cccc(Br)c2)o1 | . | 1 | 4 | i | -13 | -5 | -21 | -1
CC(=O)c1cccc(NC(=O)COc2cc3oc(=O)c(CC(C)O)c(C)c3cc2Cl)c1 (centres undefined) | 41 | -10 | -10 | i | . | 20 | 2 | 5
Cc1cccnc1NC(=O)C(C)N1C(=O)c2ccccc2C1=O (centres undefined) | -4 | 3 | 6 | i | -15 | 1 | -15 | -7
COc1ccc(NC(=O)CSCC(=O)N2c3ccccc3CCc3ccccc32)cc1 | -14 | 1 | 3 | i | . | -10 | -13 | -4
Cn1nnc2cc(C(=O)NC(C)(C)C)ccc21 | -43 | -1 | 2 | i | 38 | -1 | -4 | 10
Cc1ccc(NS(=O)(=O)c2cccc(C(=O)NCCCN3CCOCC3)c2)cc1 | -78 | 2 | 1 | i | -16 | . | . | .
O=C(c1cccs1)N(CC1CCCO1)c1nc(-c2ccccc2)cs1 (centres undefined) | 16 | -6 | -6 | i | -15 | -2 | 53 | -5
C=CCNc1nnc(SCC(=O)N2CCCCC2)c2ccccc12 | 3 | -18 | 2 | i | -5 | 86* | -13 | 116* | eIF4H FP inh retest=54*;PABP FP inh retest=56*
O=C(CC1NCCc2ccccc21)Nc1ccc(Cl)cc1 (centres undefined) | 15 | 0 | -1 | i | . | -6 | -3 | -6
Cc1cccc2c3c([nH]c12)C(=O)CC(C)(C)S3 | 25 | 0 | 1 | i | 2 | 0 | 0 | -6
NC(=O)c1cccc2ccccc12 | -20 | 1 | 3 | i | -34 | -10 | -12 | -10
CC1C(=O)NC(=O)C1c1ccccc1 (centres undefined) | -10 | -2 | -2 | i | . | 3 | -2 | 1
COc1ccccc1N1CCN(C(=O)Cc2c(C(=O)O)[nH]c3ccc(Cl)cc23)CC1 | -1 | 1 | 0 | i | . | 3 | -21 | -20
Cc1ccccc1CC(=O)N1CCN(S(=O)(=O)c2ccc(Cl)s2)CC1 | 17 | 2 | 5 | . | . | . | -12 | .
C[C@H]1CCC(=O)N([C@H](COc2ccccc2)Cc2ccccc2)CC1 | -16 | -9 | -4 | i | -13 | 0 | . | 3
N#CCCN(C(=O)CN1CCN(S(=O)(=O)c2ccc3c(c2)OCCO3)CC1)c1ccc(F)cc1 | 2 | -4 | 0 | . | -32 | . | . | .
COc1ccc(NS(=O)(=O)c2cc(NC(=O)c3ccc(=O)[nH]c3)ccc2N2CCCC2)cc1 | -57 | 4 | -8 | i | 5 | -7 | 133* | 18
COc1ccc(-n2c(N)cc(=O)[nH]c2=O)cc1 | . | . | . | i | . | 0 | -1 | 2
COc1cc(OC)c(C(=O)OCC(=O)NC23CC4CC(CC(C4)C2)C3)cc1OC | 6 | 7 | -4 | . | -13 | . | 45 | .
Cc1ccc(C)c(NC(=O)C(c2ccccc2)N2CCN(CC(=O)N3CCOCC3)CC2)c1 (centres undefined) | -12 | 2 | 5 | . | -10 | . | -18 | .
O=C(c1ccco1)N1CCN(Cc2cc(=O)c(OCc3ccccc3F)co2)CC1 | 10 | 3 | 3 | i | . | . | -8 | .
O=C(c1ccco1)c1cn(CC(=O)N2CCCCC2)c2ccccc12 | -20 | 3 | 1 | . | -15 | -2 | -14 | -15
COc1cccc(C(=O)NC2CCCc3c2cnn3-c2cc(C)cc(C)c2)c1 (centres undefined) | -1 | 1 | -6 | i | -17 | -9 | . | -1
CC(C)(C)c1ccc(C(=O)CSc2ncn[nH]2)cc1 | -153 | -1 | 2 | i | . | 4 | -4 | -3
COc1cccc(-c2nc(C(N)=O)c3[nH]c(=O)n(-c4ccccc4)c3n2)c1OC | -4 | -1 | -1 | i | -5 | 0 | -8 | 3
O=C1CCN(S(=O)(=O)c2ccccc2)CCN1CCOCc1ccc(F)cc1 | 4 | 0 | 2 | i | 10 | -7 | -4 | 1
Cc1ccc(C(=O)Nc2nc(C(N)Cc3ccc(C(F)(F)F)cc3)cs2)cc1 (centres undefined) | -17 | -4 | 3 | . | -16 | . | . | .
O=C(Nc1ccccc1)C1CC2CCC1C2 (centres undefined) | 8 | 0 | 1 | i | -11 | -4 | -3 | 9
Cc1ccc(NC(=O)CS(=O)CC(=O)N(CC(=O)NC2CCCC2)c2cc(C)ccc2C)cc1 (centres undefined) | . | -3 | -2 | i | -2 | -12 | -16 | 10
Cc1ccccc1-n1nc(C(=O)O)c(C)c(C#N)c1=O | . | 4 | 4 | i | -16 | -4 | 6 | 6
CCOc1ccc(C(C(=O)NCC2CCCO2)N(Cc2cccnc2)C(=O)c2snc(C(N)=O)c2N)cc1 (centres undefined) | 12 | -3 | -2 | i | -5 | 6 | . | 1
CCOc1cc(N2CCOCC2)c(OCC)cc1NC(=O)C(NC(=O)c1ccco1)C(C)C (centres undefined) | . | 3 | 5 | i | 0 | -1 | -6 | 2
CN(CCc1cnn(C)c1)C(=O)C1CCC(=O)N(CC2CCCCC2)C1 (centres undefined) | 1 | -1 | 1 | i | -21 | -8 | -6 | 4
CN(c1ccccc1)S(=O)(=O)c1ccc(C(=O)OCC(=O)NCc2ccco2)cc1 | . | -1 | 2 | i | -1 | 8 | -17 | -1
Cc1ccc2nc(C3CCN(CC(=O)N4CCCCCC4)CC3)[nH]c2c1 | . | -3 | -2 | i | . | 2 | 1 | -2
CCCn1nc(C(=O)OCC(=O)c2ccc3c(c2)NC(=O)CO3)c2ccccc2c1=O | -100 | -1 | 4 | i | -7 | -2 | -2 | -8
Cc1cccc(C(=O)Nc2nccs2)c1[N+](=O)[O-] | -14 | 0 | 0 | i | 0 | -10 | -3 | -1
Cc1ccc2c(Cl)c(C)c(N3CCCC3)nc2n1 | -20 | -1 | 3 | i | -20 | 3 | -4 | 2
Cc1cccc(Cn2c(-c3ccc[nH]c3=O)nc3ccccc32)c1 | 17 | 5 | 3 | i | -27 | 6 | -3 | 3
